StopGo reporter: High Throughput Screening for Foot and Mouth Disease Virus Antivirals | 410,000 tested, 1.2% active | AID 1159524, 2015 | human cells with a luciferase reporter of 2A StopGo recoding; control for the full effect not named in the record | Potency, µM (titrated, usually from 57.9 µM), for the others: top-dose signal change, negative = less light; active = well fitted falling curve with a large enough effect; inconclusive = small, poorly fitted or top-dose-only effect; inactive = no such curve, though single readings can be large or run the other way; tested in HEK293T cells; also: nearly all actives have a fitted effect of over 45% in size; luciferase light after 4 h
RE007 growth inh: qHTS Assay for Inhibitors of the HIV-1 protein Vpr. S. pombe RE007 Vpr strain, BacTiter-Glo ATP luminescence, 24 h; control for the full effect not named in the record. Potency, µM (top dose mostly 92.2 µM), without a hit: at the highest dose activity change, negative = less growth. 360,000 tested, 0.21% active; active = well fitted falling curve with a large enough effect; inconclusive = small, poorly fitted or top-dose-only effect; inactive = no such curve, though single readings can be large or run the other way;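 also: nearly all actives have a fitted effect of over 50% in size; the assay follows cell death caused by Vpr and the record does not say whether a fall means rescue or toxicity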
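Fission yeast strain RE007, carrying one chromosomally integrated HIV-1 vpr copy, was seeded at OD 0.01 in PMG+AL medium with 23 nL pinned compound. After 24 h at 30 °C and 99% humidity, viability was read by BacTiter-Glo luminescence.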
An asterisk follows results filed as active; ? = inconclusive; [ ] = another dose, or the depositor's remark. % is scaled to controls: 0 for no effect and ±100 for the full control effect; potency is read from the fitted curve at half-maximal effect. Not all compounds are listed; count on the stated rates, not on these rows.

Start of the listing, in advance (three entries):
Below each compound – StopGo reporter	RE007 growth inh
> COc1ccc(-c2ccc(CN3C(C(C)C)C(=O)N(Cc4cn(CCC5OCCO5)nn4)CCS3(=O)=O)cc2)cc1 (stereo not given)
  -7%	11%
> Cc1ccc(S(=O)(=O)N2Cc3cc(-c4ccccc4)ccc3-n3nncc3C2)cc1
  ?	3%
> C[C@@H]1ON(C)[C@H]2C[C@H]3c4[nH]c5ccccc5c4CCN3C[C@@H]12
  -10%	7%

All compounds of this part, previewed entries included:
Below each compound – StopGo reporter	RE007 growth inh
> COc1ccc(-c2ccc(CN3C(C(C)C)C(=O)N(Cc4cn(CCC5OCCO5)nn4)CCS3(=O)=O)cc2)cc1 (stereo not given)
  -7%	11%
> Cc1ccc(S(=O)(=O)N2Cc3cc(-c4ccccc4)ccc3-n3nncc3C2)cc1
  ?	3%
> C[C@@H]1ON(C)[C@H]2C[C@H]3c4[nH]c5ccccc5c4CCN3C[C@@H]12
  -10%	7%
> CCC(C)[C@H]1CNC(=O)C(=O)N1CCCCC1CCCCC1 (stereo not given in full)
  -15%	-12%
> CC(C)CC1C(=O)N(Cc2cn(CCC3OCCO3)nn2)CCS(=O)(=O)N1Cc1ccc(-c2ccccc2)cc1 (stereo not given)
  ?	-3%
> CCO[C@H]1OC(C(=O)NCc2nc3ccccc3[nH]2)=C[C@@H](c2cn(C(C)=O)c3ccccc23)[C@@H]1CCCO
  0%	2%
> O=C(NC1CCCC1)C(c1ccco1)N1CCC(O)(c2ccc(Cl)cc2)CC1 (stereo not given)
  -2%	3%
> CCOC1=C2CN(S(=O)(=O)c3ccc(C)cc3)[C@H](c3cccs3)C[C@H]2[C@H]2C(=O)N(c3ccccc3)C(=O)[C@H]2C1
  8%	7%
> Nc1nc2nc[nH]c2c(=O)[nH]1
  -19%	6%
> CC1OC(CCc2cccc(Cl)c2)Cc2[nH]c(=S)[nH]c(=O)c21 (stereo not given)
  0%	5%
> O=C(OCc1cn([C@@H]2CN(C(=O)c3cccs3)[C@@H](c3ccc(Cl)cc3)C[C@H]2O)nn1)c1ccccc1
  -19%	13%
> CC(C)(C)NC(=O)C(C1CC1)n1c(=O)c(-c2ccccc2)nc2ccccc21 (stereo not given)
  8%	-3%
> O=C(NCc1ccco1)c1ccc2sc([C@@H]3O[C@H](CO)[C@@H](O)[C@H]3O)nc2c1
  -15%	1%
> CC1(C)CNC(=S)N1Cc1ccccc1
  -15%	13%
> CCCCN1CC(COCc2ccccc2)Oc2cc(Br)ccc2S1(=O)=O (stereo not given)
  2%	-5%
> CC(=O)NC(C)(c1ccccc1)c1nc(/C=C/c2ccccc2)cs1 (stereo not given)
  -27%	1%
> COCCOC(=O)N1CCCCC1c1cc(C(=O)NCc2ccc(Cl)c(Cl)c2)no1 (stereo not given)
  2%	11%
> C[C@H]1CN([C@@H](C)CO)S(=O)(=O)c2ccc(Br)cc2O[C@H]1CN(C)C(=O)CN(C)C
  -8%	5%
> c1cncc(C2SCCCS2)c1
  0%	-4%
> Cc1ccc(Cn2cc(CN3CC(N4CCSCC4)CS3(=O)=O)nn2)cc1 (stereo not given)
  -12%	-17%

The list continues.
Below each compound – StopGo reporter	RE007 growth inh
> CC(C)(C)n1nnnc1C(c1ccccc1)N1CCN(c2ncc(C(F)(F)F)cc2Cl)CC1 (stereo not given)
  ?	-9%
> CCOC(=O)[C@]12CCC=C1N(Cc1ccco1)C(=O)[C@H](CC(=O)N1CCC(c3ccccc3)CC1)C2
  -14%	3%
> CN(C)C(=O)c1cccc(-c2cnc3c(NC=O)cc(-c4ccccc4Cl)cn23)c1
  ?	1%
> COc1ccc2c(c1)N(C[C@H](C)CN(C)C)c1ccccc1S2
  -29%	0%
> CCOC(=O)C1(C)CCN1C(=O)c1ccccc1C(F)(F)F (stereo not given)
  -21%	3%
> O=C(COC(=O)/C=C/c1ccc(Cl)cc1)NCc1cccs1
  -8%	-11%
> O=C(NC(Cc1c[nH]c2ccccc12)C(=O)O)OCC1c2ccccc2-c2ccccc21 (stereo not given)
  -12%	7%[18.4 µM]
> O=C(Nc1cccc2cccnc12)c1ccc2sc([C@H]3C[C@H](O)[C@@H](CO)O3)nc2c1
  15%	6%
> COC[C@H]1CCCN1c1ccc2c(c1)O[C@@H](COCc1ccccc1)CN([C@@H](C)c1ccccc1)S2(=O)=O
  -15%	15%
> COc1ncnc2c1ncn2CCCN[C@H](C)c1cccc2ccccc12
  -11%	0%
> O=C1c2ccccc2-c2cc(Br)ccc2NC1O (stereo not given)
  -24%	-28%
> CC1(C(=O)NS(=O)(=O)c2ccccc2)CCN1C(=O)CC(c1ccccc1)c1ccccc1 (stereo not given)
  -19%	-8%[18.4 µM]
> CN(Cc1ccccn1)C(=O)c1cc(COc2ccc(F)cc2Cl)on1
  36%[activator]	-5%
> C[C@@H]1CN([C@@H](C)CO)S(=O)(=O)c2ccc(Br)cc2O[C@@H]1CN(C)C(=O)c1ccc(F)cc1
  7%	-5%
> O=C1NC[C@H](CCCCN2C[C@H](Cc3ccc(O)cc3)N(CC3CCCCC3)C(=O)C2=O)N(CCc2ccc(O)cc2)C1=O
  -10%	6%
> NC(Cc1ccc(Cl)cc1)c1csc(Nc2cc(Oc3ccccc3)ncn2)n1 (stereo not given)
  -20%	6%[18.4 µM]
> CC(C)(C)NC(=O)C(c1ccnc2ccccc12)n1c(=O)c(-c2cc3ccccc3[nH]2)nc2ccccc21 (stereo not given)
  -6%	4%
> O=CN1CCN(C(=O)Cc2ccc(Cl)cc2)CC1
  -9%	7%
> NC(=O)OCCCc1ccccc1
  -15%	21%
> CCc1ccc(OC2(C)CCN(Cc3ccccc3OC(F)F)C2)cc1 (stereo not given)
  -13%	-15%

(cont.)
Below each compound – StopGo reporter	RE007 growth inh
> C[C@@H]1CN([C@H](C)CO)C(=O)CCCn2cc(nn2)CO[C@H]1CN(C)C(=O)Nc1cccc(C(F)(F)F)c1
  -16%	-6%
> CC(C)=NNc1cnnc2ccc([N+](=O)[O-])cc12
  -6%	-18%[18.4 µM]
> CCOC1=C2[C@@H](CN(S(=O)(=O)c3ccc(C)cc3)[C@H]2c2ccccc2Cl)[C@H]2C(=O)N(C(C)(C)C)C(=O)[C@H]2C1
  29%	3%
> Clc1cccc(Cc2c(-c3cccc(Cl)c3)nc3ccc(Br)cn23)c1
  23%	-4%
> O=C(Nc1ccc2c(c1)CCO2)Nc1nnc([C@H]2C[C@H](O)[C@@H](CO)O2)s1
  -8%	17%
> C=C1C(=O)[C@]23C[C@H]1CCC2[C@]1(C)CCC[C@@](C)(C(=O)O)C1C[C@@H]3O (stereo not given in full)
  25µM*	?
> C[C@@H]1CN([C@@H](C)CO)C(=O)CCCn2nncc2CO[C@@H]1CN(C)S(=O)(=O)c1ccccc1C#N
  -5%	-6%
> C[C@H](CO)N1C[C@H](C)[C@@H](CN(C)Cc2ccc(-c3ccccc3)cc2)Oc2ncc(C#C[C@@H](C)O)cc2C1=O
  2%	10%
> CCc1nc2ccc(C(=O)NCCOc3ccc(OC)cc3)cn2c1N(C)Cc1nccn1C
  3%	-15%
> C[C@@H]1CN([C@@H](C)CO)C(=O)CCCn2nncc2CO[C@H]1CN(C)C(=O)CCC(F)(F)F
  -19%	-6%
> O=C(c1ccc(F)cc1)N1CCN(S(=O)(=O)c2ccc3c(c2)OCCO3)CC1
  ?	-11%
> Cc1ccc(OCc2cc(C(=O)N(C)Cc3cnn(C)c3)no2)cc1C
  41%[activator]	4%
> C[C@H]1Cn2cnc(C(=O)N[C@@H](Cc3c[nH]c4ccccc34)C(=O)OC(C)(C)C)c2C(=O)N1
  -11%	-11%
> CC1Cc2[nH]c(=S)[nH]c(=O)c2C(C)O1 (stereo not given)
  -25%	-1%
> Cc1cc(C(=O)N2CCC2(C)C(=O)NCc2cccc3ccccc23)nn1C (stereo not given)
  -15%	-9%[18.4 µM]
> COC(=O)C1=C(COc2ccccc2)NC(=O)NC1c1ccc(Cl)cc1 (stereo not given)
  -28%	-4%
> O=C(O)CSc1cccnc1Sc1ccc(Cl)cc1
  -11%	13%
> N=c1c2ccccc2nc2n1CCCCC2
  -20%	1%
> CC1(C(=O)NCc2ccccc2)CN(S(C)(=O)=O)CC(=O)N1CCc1ccccc1 (stereo not given)
  -7%	8%
> COc1cc(/C=C2/SC(=S)N(CCC(=O)N3CCN(C)CC3)C2=O)cc(OC)c1OC
  0%	8%

Additional structures follow.
Below each compound – StopGo reporter	RE007 growth inh
> C/C(=N\n1c(C)nc2ccccc2c1=O)c1ccc(N)cc1
  -7%	-4%
> CCOC(=O)C1=CCN(S(=O)(=O)c2ccc(C)cc2)C1c1ccc(Cl)cc1 (stereo not given)
  -25%	16%
> CC(C)Nc1ncnc2c1ncn2[C@H]1CN(Cc2ccc(-c3ccccc3)cc2)C[C@@H](CO)O1
  ?	16%
> COc1ccc(NC(=O)c2sc(=O)n(Cc3ccccc3C#N)c2C)cc1OC
  0%	-15%[18.4 µM]
> COCCNc1nc(Oc2cccc3ccccc23)c2sccc2n1
  -23%	20%
> COc1ccc(-c2oc3ccc(-c4ccc5c(c4)OCO5)cc3c2C#CC2(O)CCCCC2)cc1
  -18%	2%
> Cc1ccsc1C(=O)N1CCCCCC1(C)C(=O)NCC(C)C (stereo not given)
  -9%	-10%
> COc1cc(Cn2c3ccc(NC(=O)CC(C)C(F)(F)F)cc3c(=O)n2C)ccc1F (stereo not given)
  -3%	4%
> CCOC(=O)[C@]12CCCC=C1N(Cc1cccc3ccccc13)C(=O)[C@H](CC(=O)NCc1ccccc1)C2
  -14%	-2%
> CC(C)Cc1nnc(NS(=O)(=O)c2ccccc2)s1
  1%	-3%
> CC(C)C[C@@H]1COc2cccc(N(C)CCO)c2S(=O)(=O)N1
  -17%	-23%
> Cc1ccc(Cn2c(C(C)Nc3nc(-c4ccc(Cl)cc4)cs3)nc3cc(C(=O)NCCCO)ccc32)cc1 (stereo not given)
  ?	-6%
> CCOC(=O)[C@]12CCC=C1N(Cc1ccco1)C(=O)[C@H](CC(=O)NCCc1ccccc1OC)C2
  -13%	9%
> CC(O)(c1ccccc1)c1nc(/C=C/c2ccccc2)cs1 (stereo not given)
  -5%	?
> CNC(=O)C[C@@H]1C(=O)N(Cc2ccccc2)CC1(C)C
  1%	-4%
> COc1cccc(CNC(=O)[C@@H]2CCCN2C(=O)[C@H]2CCCCN2S(=O)(=O)c2ccc(OC)c(C)c2)c1
  -14%	8%
> CN1CCCCC1Cc1ccccc1 (stereo not given)
  -13%	12%
> CC(=O)Nc1ccc(-c2ccnc3c2CC(C)(C(=O)Nc2ccccc2)O3)cc1 (stereo not given)
  3%	7%[18.4 µM]
> COC(=O)C1(C(=O)OC)C[C@H](/C=C/c2ccccc2)N(Cc2ccccc2OC)[C@@H]1c1ccc(F)cc1
  -23%	-6%
> O=C(c1[nH]c(C(F)(F)F)nc1-c1ccccc1)N1CCN(c2ccc(C(F)(F)F)cn2)CC1
  ?	-5%

(listing goes on)
Below each compound – StopGo reporter	RE007 growth inh
> CCCCNC(=O)C1(C)CCN1Cc1cc(C)ccc1C (stereo not given)
  -2%	-7%[18.4 µM]
> CCN(CC)Cc1nc2nc(Cl)c(Cl)nc2[nH]1
  -25%	-5%
> CC(=O)c1ccc(C2CC(OCCF)=CC(=O)O2)cc1 (stereo not given)
  -18%	-15%
> O=c1c2ccccc2sc2ccc(C#CC3(O)CCCCC3)cc12
  45µM*	?
> CC1=C(N2CCN(c3ncccn3)CC2)CCC1=O
  -8%	9%
> CCCNC(=O)C1(CC2CC(c3ccccc3)=NO2)CCN(C(=O)CCCCCBr)CC1 (stereo not given)
  -6%	-2%
> CC(C(=O)OCC(=O)Nc1ccccc1OC(F)F)N1C(=O)C2CC=CCC2C1=O (stereo not given)
  -23%	-8%
> COC(=O)C1=C(c2ccccc2)C[C@@H]2CC[C@H]1N2C(=O)NC(C)C
  -10%	-9%
> COc1cc(-c2cc(NC=O)c3ncc(-c4ccc(C(C)=O)cc4)n3c2)cc(OC)c1OC
  -4%	-1%
> Cc1ccccc1C1(O)c2ccccc2-c2ccccc21
  -18%	-15%
> COc1cc(Cn2c3ccc(NC(=O)NCCc4ccccc4)cc3c(=O)n2C)ccc1F
  14%	3%[18.4 µM]
> O=C1CN(CCN2CC(=O)N(Cc3ccccc3)C(=O)C2)CC(=O)N1Cc1ccccc1
  -20%	-13%
> CCOC(=O)[C@]12CCC=C1N(Cc1ccc3c(c1)OCO3)C(=O)[C@H](CC(=O)NCC13CC4CC(CC(C4)C1)C3)C2
  ?	-2%
> O=C(CC[C@H]1O[C@@H](n2ccc(=O)[nH]c2=O)[C@H](O)[C@@H]1O)NCc1cccc2ccccc12
  0%	6%
> COc1cc2ccnc(C=O)c2cc1OC
  ?	-3%
> CC1(C)C(/C=C/C=C/C=C/C=C2\N(CCCCS(=O)(=O)O)c3ccc4ccccc4c3C2(C)C)=[N+](CCCCS(=O)(=O)[O-])c2ccc3ccccc3c21
  ?	-14%[18.4 µM]

2 successive compounds already listed, quoted:
Below each compound – StopGo reporter	RE007 growth inh
> COc1cc2ccnc(C=O)c2cc1OC
  ?	-3%
> CC1(C)C(/C=C/C=C/C=C/C=C2\N(CCCCS(=O)(=O)O)c3ccc4ccccc4c3C2(C)C)=[N+](CCCCS(=O)(=O)[O-])c2ccc3ccccc3c21
  ?	-14%[18.4 µM]

Compound activity deposited in PubChem BioAssay by National Center for Advancing Translational Sciences (NCATS).
